# Polio RdRp inh = inhibitors of poliovirus RNA polymerase binding and polymerization; P03300; poliovirus polymerase elongation, fluorescence polarization; hits give low values; % elongation, % (compound at 16.7 µg/mL); 150,000 compounds, 0.66% hits; AID 588519; in the data active = % elongation below about 90%; also: some results filed as inactive read as strong as hits
# MbtI inh = MbtI salicylate synthase inhibition. P9WFX0. purified MbtI enzyme, fluorescence intensity read-out. inhibition, %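 (about 17 µg/mL by stock and volumes)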. 100,000 compounds, 0.89% hits. AID 493033;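 active = above 50% in both replicates, above 80% if mildly self-fluorescent; inactive = the rest, strongly fluorescent compounds included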;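 also: 0% = mean of negative and 100% = mean of positive controls; one replicate is shown; some compounds called inactive have numbers as strong as hits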
# Target sequence (P9WFX0 whole entry, looked up): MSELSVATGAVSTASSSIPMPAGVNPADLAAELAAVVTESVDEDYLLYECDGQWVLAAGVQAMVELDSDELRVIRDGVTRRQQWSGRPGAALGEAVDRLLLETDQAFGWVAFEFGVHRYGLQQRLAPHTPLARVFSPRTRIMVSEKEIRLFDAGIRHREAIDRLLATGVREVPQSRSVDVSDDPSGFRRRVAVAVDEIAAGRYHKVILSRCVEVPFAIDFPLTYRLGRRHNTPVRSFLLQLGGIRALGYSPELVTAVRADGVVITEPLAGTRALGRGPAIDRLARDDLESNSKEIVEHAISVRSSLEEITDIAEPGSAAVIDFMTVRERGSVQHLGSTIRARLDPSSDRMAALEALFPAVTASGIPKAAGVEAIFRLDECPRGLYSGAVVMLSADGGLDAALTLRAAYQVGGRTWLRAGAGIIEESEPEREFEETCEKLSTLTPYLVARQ
# Mtb MenB inh = inhibitors of Mycobacterium tuberculosis MenB enzyme; MenB enzyme assay, absorbance read-out; some hits fall short of the stated cut; inhibition, %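 (about 12 µg/mL by stock and volumes)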; 100,000 compounds, 0.43% hits; AID 540299;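 active = mean of two replicates above 30%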;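 also: 0% = no compound and 100% = wells with inactive enzyme; the first replicate is given; strong numbers were not always called active; inactives centre near -10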
# Target sequence (P9WNP5 whole entry, looked up): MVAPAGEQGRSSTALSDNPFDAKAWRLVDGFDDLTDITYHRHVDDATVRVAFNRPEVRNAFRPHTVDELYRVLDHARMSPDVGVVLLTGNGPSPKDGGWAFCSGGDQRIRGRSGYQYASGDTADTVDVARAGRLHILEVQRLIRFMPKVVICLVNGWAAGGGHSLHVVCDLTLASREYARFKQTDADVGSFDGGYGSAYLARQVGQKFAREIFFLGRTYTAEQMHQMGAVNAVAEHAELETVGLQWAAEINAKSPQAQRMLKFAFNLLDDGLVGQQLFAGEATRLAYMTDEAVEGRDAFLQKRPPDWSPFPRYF
# Polio RdRp inh intensity = also measured in Polio RdRp inh; calls as there; % elongation; measured here: total intensity read-out; formula for this scale not given here;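 total fluorescence in place of polarization; lower means less elongation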
# Numbers without * were called inactive; i = inactive; nt = no result given; & = joins results of further samples.
1: CC(C)CN(C1CCS(=O)(=O)C1)S(=O)(=O)c1cccs1 (configuration not stated)
2: N/C(=N\OC(=O)CCn1c(=O)oc2ccccc21)c1ccc(Cl)cc1
3: C/C=C/C1OC23CCCCC2C(C#N)(C(=N)O3)C1(C#N)C#N (configuration not stated)
4: FC(F)Oc1ccc(NC(=S)NNc2nc3ccccc3[nH]2)cc1
5: COc1ccc2[nH]c3c(=O)n(CCC(=O)NCCc4ccc(OC)c(OC)c4)c(=S)[nH]c3c2c1
6: O=C(c1cccc(-n2cnnn2)c1)N1CCCC(c2nc3ccccc3s2)C1 (configuration not stated)

compound no.	1	2	3	4	5	6
Polio RdRp inh	100	99	105	44*	103	100
Polio RdRp inh intensity	106	105	110	49*	110	106
MbtI inh	-3	-2	nt	95	-2	-8
Mtb MenB inh	4	3	-14	1	-22	-7

7: COC(=O)c1ccc(CSc2nc3ccccc3c(=O)n2-c2ccccc2)o1
8: CSc1ncc(Cl)c(C(=O)N(Cc2ccccc2)Cc2ccco2)n1
9: COc1cccc(NC(=O)c2cc3c(s2)-c2c(C)cccc2OC3)c1
10: CCOC(=O)c1sc(N)c(C(=O)OCC)c1CSc1nnc2n1CCCCC2
11: CCc1ccc(N2CC(O)(c3ccccc3)[N+]3=C2CCCC3)cc1 (configuration not stated)
12: O=C(CCN1C(=O)NC2(CCCC2)C1=O)Nc1ccc(S(=O)(=O)N2CCCCC2)cc1

compound no.	7	8	9	10	11	12
Polio RdRp inh	98	103	98	106	100	102
Polio RdRp inh intensity	101	102	103	105	97	111
MbtI inh	10	0	-65	1	2	-15
Mtb MenB inh	-9	-12	-81	3	-6	-5

13: CC(C)N1C(=O)c2ccccc2CC1(C)C(=O)NC1CCCCCC1 (configuration not stated)
14: CC(C)(C)N1CC(C(=O)O)CC1=O (configuration not stated)
15: CCC(c1nnc(SCC(=O)N2CCOCC2)o1)N(C)C (configuration not stated)
16: CC(C)(C)c1cc(C(F)(F)F)nc(SCCNC(=O)c2cnn3cccnc23)n1
17: CCCCN1C(=O)CS/C1=C(/C#N)C(=O)Nc1cccc(OC)c1
18: CSc1nc2c(c(=O)[nH]1)C(c1ccc(F)cc1F)CC(=O)N2 (configuration not stated)

compound no.	13	14	15	16	17	18
Polio RdRp inh	99	97	107	101	105	100
Polio RdRp inh intensity	102	91	109	104	107	102
MbtI inh	7	-7	-8	-15	-1	-5
Mtb MenB inh	-3	-15	-13	34*	-7	7

19: O=C(CC1S/C(=N/N=C2\CSC(=O)N2)NC1=O)Nc1ccccc1 (configuration not stated)
20: CS(=O)(=O)N1CCN(c2ccc(NC(=O)CSc3nnc(Cc4ccccc4)o3)cc2)CC1
21: CC(C)CC(=O)N(c1nnc(-c2cccnc2)s1)C1CCCC1
22: CN(Cc1ccco1)C(=O)C1=Cc2sc3c(c2CS1)CCCC3
23: O=C(c1ccc2c(c1)C(=O)N(CCCO)C2=O)c1ccc2c(c1)C(=O)N(CCCO)C2=O
24: c1ccc(SCCc2ccccn2)cc1

compound no.	19	20	21	22	23	24
Polio RdRp inh	100	100	104	103	100	101
Polio RdRp inh intensity	105	105	104	106	100	101
MbtI inh	9	-12	-6	55	-3	-4
Mtb MenB inh	-38	-24	-7	-8	-3	8

25: COc1cccc(OCCSc2nc3ccccc3s2)c1
26: COC(=O)CSc1nc(C2CC2)cc(C(F)(F)F)c1C#N
27: O=S1(=O)CCN(Cc2ccc(F)cc2F)CC1
28: O=C(Nc1nccs1)c1cc(=O)[nH]c2ccccc12
29: CCCCNC(=O)c1cccc2c1C(=O)N(CCC)C2
30: Cc1ccc(-n2cccn2)cc1

compound no.	25	26	27	28	29	30
Polio RdRp inh	108	104	100	100	105	104
Polio RdRp inh intensity	108	101	103	102	103	104
MbtI inh	nt	15	-3	-4	-8	-28
Mtb MenB inh	-30	12	-8	nt	-11	-2

31: COC(CNC(=O)c1ccc(/C=C2\Oc3ccccc3N(Cc3cccc(F)c3)C2=O)cc1)OC
32: CC(C)CN1C(=O)c2ccccc2C(C(=O)NCc2cccs2)C1c1cccs1 (configuration not stated)
33: O=C(O)c1ccccc1N(Cc1ccccc1)C(=O)c1ccco1
34: FC(F)(F)c1cccc(Cn2c(-c3cscn3)nc3ccccc32)c1
35: Cn1c(=O)n(CC(=O)O)c(=O)c2c1nc1n2CCN1c1ccc(Cl)cc1
36: CCN1CCN(C(=O)CCCn2c(=O)[nH]c3cc(Cl)ccc3c2=O)CC1

compound no.	31	32	33	34	35	36
Polio RdRp inh	103	103	102	99	101	101
Polio RdRp inh intensity	105	103	105	101	100	101
MbtI inh	-22	-23	-5	-21	4	-5
Mtb MenB inh	-11	-14	nt	-14	-5	1

37: CC(NC(N)=O)C(=O)N1CC=C(c2ccccc2)CC1 (configuration not stated)
38: Cn1c(SC/C=C/c2ccccc2)nc2sc3c(c2c1=O)CCCC3
39: Cc1ccc(C(CC(=O)N2CCCC2)c2ccccc2)c(O)c1 (configuration not stated)
40: CCc1ccc2[nH]c(C(=O)Nc3ccc(C(F)(F)F)c(C#N)c3)cc2c1
41: O=C1CCC(C(=O)N(CC2CCCO2)C2CCS(=O)(=O)C2)=NN1c1c(F)c(F)cc(F)c1F (configuration not stated)
42: C/C(=C\C(=O)C(F)(F)F)NCc1ccco1

compound no.	37	38	39	40	41	42
Polio RdRp inh	104	102	104	101	109	106
Polio RdRp inh intensity	103	97	101	101	116	122
MbtI inh	4	12	-7	i	-22	10
Mtb MenB inh	-5	9	-29	-6	-17	-13

43: CC(C)CCNC(=O)c1cc(=O)c2ccccc2[nH]1
44: Cc1cc(-c2csc(NC(=O)C3CC3)n2)c(C)n1-c1ccc(F)cc1
45: CSc1nc(N)n(-c2ncccc2C(F)(F)F)n1
46: CN1/C(=C\C=N\NS(=O)(=O)c2ccccc2)C(C)(C)c2ccccc21
47: Cc1cc(C)c2c(N)nsc2n1
48: Cc1cc(C(=O)NCc2ccc(S(N)(=O)=O)cc2)c(C)o1

compound no.	43	44	45	46	47	48
Polio RdRp inh	98	105	102	113	103	104
Polio RdRp inh intensity	106	110	102	135	99	104
MbtI inh	4	1	-5	17	6	10
Mtb MenB inh	-25	4	-6	-172	15	3

49: COc1ccc(-c2c3c(nc4c(C#N)c(C)n(-c5ccccc5)c24)CCC3)cc1
50: CC(C)NC(C)C(=O)c1ccc2ccccc2c1 (configuration not stated)
51: O=C(NCCC(c1ccccc1)c1ccccc1)c1cnc2ccccn2c1=O
52: CCCCC/C=C\C/C=C\C/C=C\C/C=C\CCCC(=O)O[C@@H](CO)COC(=O)CCCCCCCCCCCCCCCCC
53: CCOc1ccccc1N(C)C(=O)COc1cc(=O)n(C)c2ccccc12
54: O=C(c1cccnc1)N1N=C2CCCCC2C1(O)C(F)(F)F (configuration not stated)

compound no.	49	50	51	52	53	54
Polio RdRp inh	100	103	103	101&100	101	102
Polio RdRp inh intensity	102	102	98	104&103	102	101
MbtI inh	9	i	55	-22	1	35
Mtb MenB inh	-25	21	-26	-3	-5	-24

55: CC1=N/C(=C/c2ccccc2)C(=O)O1
56: CCCCC(=O)Nc1sc2c(c1C(N)=O)CCC2
57: S=c1[nH]ncn1/N=C/c1ccccc1
58: CC1=CC(C)(C)Nc2ccc(OC(=O)c3ccco3)cc21
59: CC(=O)NC1(NC(C)=O)CC(c2ccccc2)N(C)CC1C (configuration not stated)
60: Cc1ccc(CCSCC(=O)O)cn1

compound no.	55	56	57	58	59	60
Polio RdRp inh	103	102	100	103	100	103
Polio RdRp inh intensity	102	103	99	104	102	110
MbtI inh	2	1	86*	-1	-10	nt
Mtb MenB inh	-8	nt	8	-27	0	-8

# The final 2 entries of the section before are carried over, then new ones follow:
59: CC(=O)NC1(NC(C)=O)CC(c2ccccc2)N(C)CC1C (configuration not stated)
60: Cc1ccc(CCSCC(=O)O)cn1
61: COC(=O)c1cc(CSc2nnc(Nc3ccc(C)cc3C)s2)oc1C
62: CCC(=O)OCC(=O)C1(OC(=O)CC)[C@H](C)C[C@H]2[C@H]3[C@H]([C@@H](O)C[C@@]21C)[C@@]1(C)C=CC(=O)C=C1C[C@H]3Cl (some centres not stated)
63: CCOC(=O)C1CCN(C(=O)c2cccc(C(=O)N3CCC(C(=O)OCC)CC3)c2)CC1
64: Cn1cc(Br)cc(Br)c1=O
65: O=C(CN(c1cccc(Br)c1)S(=O)(=O)c1ccccc1)N1CCOCC1
66: CC1(C)C(C(=O)Nc2ccc(S(=O)(=O)c3ccc(NC(=O)C4C(C)(C)C4(C)C)cc3)cc2)C1(C)C

compound no.	59	60	61	62	63	64	65	66
Polio RdRp inh	100	103	107	99	102	98	101	105
Polio RdRp inh intensity	102	110	110	99	105	102	103	105
MbtI inh	-10	nt	0	-3	-10	17	-11	nt
Mtb MenB inh	0	-8	-32	1	0	-20	-25	-13

67: Cc1ccc(-c2c(C(=O)NC(C)C)oc(=O)c3ccccc23)cc1
68: Cc1ccc(N=Cc2cc3ccccc3nc2Cl)c(C)c1
69: Cc1cc(C)c(C=C(C#N)C#N)[nH]1
70: COc1cccc(N2CC(C(=O)Nc3c(C(N)=O)oc4ccccc34)CC2=O)c1 (configuration not stated)
71: O=C1c2cccc3cccc(c23)N1CNc1ncccn1
72: O=C(COc1ccc(Cl)cc1)OCC(=O)N1CCCCCC1

compound no.	67	68	69	70	71	72
Polio RdRp inh	105	99	105	104	105	101
Polio RdRp inh intensity	105	135	106	96	104	104
MbtI inh	-9	nt	-2	-73	4	-8
Mtb MenB inh	-12	4	-467	-31	3	nt

73: N#CC(=C1SC2CS(=O)(=O)CC2S1)c1nc2ccccc2s1 (configuration not stated)
74: CCCN(C(=O)Cc1noc2ccc(C)cc12)c1ccc(F)cc1
75: Nc1c(NCCO)c2ccccc2oc1=O
76: COC(=O)c1sc(NC(=O)C(F)(F)F)c(C(=O)OC)c1C
77: CCc1ccccc1NC(=O)C(CC)CC
78: CC1/C(=N/O)CC(c2ccco2)NC1c1ccco1 (configuration not stated)

compound no.	73	74	75	76	77	78
Polio RdRp inh	107	100	103	104	101	101
Polio RdRp inh intensity	107	100	103	102	103	104
MbtI inh	3	-2	13	17	-5	-18
Mtb MenB inh	-14	-1	-18	0	3	-9

79: O=C(CN1CCc2ccccc21)N1CCN(S(=O)(=O)c2ccccc2)CC1
80: CCOC(=O)c1cc(C#N)c(Sc2n[nH]c(C(F)(F)F)n2)nc1C(F)(F)F
81: CC1=C(C)NC(=S)SC1
82: COc1ccc(CN(C)C(=O)c2ccc(C)cc2O)c(OC)c1
83: O=c1[nH]c2ccc(N=Cc3ccc(O)cc3)cc2[nH]1
84: O=C1CCC(C(=O)O)=NN1

compound no.	79	80	81	82	83	84
Polio RdRp inh	105	102	99	106	102	101
Polio RdRp inh intensity	109	103	100	104	98	102
MbtI inh	-6	-1	97*	1	nt	-23
Mtb MenB inh	-7	18	-20	-13	-24	15

# Next section, overlapping the part above by 3 compounds.
82: COc1ccc(CN(C)C(=O)c2ccc(C)cc2O)c(OC)c1
83: O=c1[nH]c2ccc(N=Cc3ccc(O)cc3)cc2[nH]1
84: O=C1CCC(C(=O)O)=NN1
85: Cc1ccc2nc(SC3CCCC3)nc(=O)n2c1
86: NC(=O)c1ccccc1NC(=O)COC(=O)CC1CCCC1
87: CSC1=NC2C(N1)N(C)C(=O)N2C (configuration not stated)
88: CCC1=C(C(=O)OC)C(c2ccc(Br)cc2)n2ncnc2N1 (configuration not stated)
89: CC1=C(C#N)C(=O)N(C)C(C)(C)C1
90: COC(CNC(=O)c1cccc(N2CCCC2=O)c1)OC

compound no.	82	83	84	85	86	87	88	89	90
Polio RdRp inh	106	102	101	102	101	106	104	64	102
Polio RdRp inh intensity	104	98	102	106	114	107	109	164	107
MbtI inh	1	nt	-23	-27	-8	nt	-4	-2	6
Mtb MenB inh	-13	-24	15	-8	nt	0	2	-16	-15

91: O=C1NC(=O)C(=Cc2ccc(-c3ccccc3)o2)C(=O)N1
92: CC(C)(C)C(=O)N(CN1C(=O)c2ccccc2C1=O)c1cccc(F)c1
93: CN1C(=O)C2C=CC=CC2N=C1SCc1ccccc1F (configuration not stated)
94: CCC(=O)Oc1ccc2c(C)cc(=O)oc2c1C(=O)CC
95: N#CC(C#N)=Cc1ccc(-c2cccc(C(=O)O)c2)o1
96: NC(=O)c1n[nH]c(=O)c2ccccc12

compound no.	91	92	93	94	95	96
Polio RdRp inh	101	96	108	101	103	103
Polio RdRp inh intensity	104	93	113	105	102	106
MbtI inh	72	10	nt	i	-26	12
Mtb MenB inh	12	-10	-9	10	-472	-10

97: CC(=O)N1CCCSC1=Nc1ccccc1
98: CCOC(=O)c1cnc2c(OC)cccc2c1NCCc1ccc(OC)c(OC)c1
99: Cc1cccc(S(=O)(=O)NCc2cn3cccc(C)c3n2)c1
100: CCn1c(SCC(=O)N/N=C/c2ccccc2)nnc1-c1ccccc1
101: Cc1csc(SC(C)C(=O)Nc2ccccc2C)n1 (configuration not stated)
102: CCN(c1ccccc1)S(C)(=O)=O
103: CCOC(=O)c1sc2nc(SCC(=O)C(C)(C)C)n(N)c(=O)c2c1C

compound no.	97	98	99	100	101	102	103
Polio RdRp inh	103	100	103	105	103	106	105
Polio RdRp inh intensity	107	102	105	102	101	104	99
MbtI inh	5	42	-2	2	-2	-5	1
Mtb MenB inh	7	-18	-3	-24	-11	-37	-4

# Screens from PubChem.
